CSC inhib: cancer stem cell inhibition | inhibition, % at 7.5 µM | cancer stem cell-like cells viability, luminescence | 300,000 compounds, 1.1% hits | AID 2717;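 active = mean at 75% or more and at least half the replicates too; inconclusive = mean and replicates disagree; tested in HMLE shEcad cells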;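 also: 0% = median of negative and 100% = median of positive control wells; the first replicate is given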
Rce1 inhib: yeast Ras-converting enzyme inhibition. Q03530. yeast membranes, quenched prenylated peptide cleavage fluorescence. calls only. 290,000 compounds, 0.27% hits;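 active = fall in fluorescence gain of 50% or more versus controls, with final raw signal at or below 3038400; inconclusive = same 50% fall but final raw signal above 3038400; inactive = fall in fluorescence gain under 50%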;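 also: plate controls were neutral control wells for no effect and wells lacking membranes for full effect; tested at 10 µM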
UUG fidelity: yeast start codon fidelity modulation | S. cerevisiae UUG-firefly luciferase reporter, luminescence/redox ratio | activity score, % at 18.7 µM | 350,000 compounds, 0.13% hits;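 active = replicate mean at a twofold rise or more, about +100% in these data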;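 also: firefly luciferase made from a UUG start codon reports start codon fidelity; reporter light over untreated wells divided by growth signal over untreated wells; some hits fall short of that in this replicate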
eIF4H inh: inhibitors of RNA binding by human eIF4H; Q15056; eIF4H fluorescence polarization binding assay; inhibition, % at 35 µM; 290,000 compounds, 0.94% hits; AID 2012;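 active = 50% or more with normal probe brightness, or confirmed in later tests; inconclusive = above 50% with abnormal brightness, or retests that disagree; inactive = below 50% or failed in later tests; about a fifth of its hits are not listed in these tables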;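 also: calls also rest on retests at 20 µM and on dose response follow-up; 0% = protein and probe with vehicle and 100% = probe without protein; strong numbers were not always called active; many hits fall short of the cut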
PABP FP inh: blocks human PABP binding to poly(A) RNA; P11940; fluorescence polarization; inhibition, % at 35 µM; 290,000 compounds, 1% hits; AID 2014;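 active = 50% or more with normal probe brightness, or confirmed in later tests; inconclusive = above 50% with abnormal brightness, or retests that disagree; inactive = below 50% or failed in later tests; about a fifth of its hits are not listed in these tables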;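 also: calls also rest on retests at 20 µM and on dose response follow-up; controls were probe without protein and protein plus probe with vehicle; some compounds called inactive have numbers as strong as hits; many hits fall short of the cut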
Target sequence (P11940 whole entry, looked up): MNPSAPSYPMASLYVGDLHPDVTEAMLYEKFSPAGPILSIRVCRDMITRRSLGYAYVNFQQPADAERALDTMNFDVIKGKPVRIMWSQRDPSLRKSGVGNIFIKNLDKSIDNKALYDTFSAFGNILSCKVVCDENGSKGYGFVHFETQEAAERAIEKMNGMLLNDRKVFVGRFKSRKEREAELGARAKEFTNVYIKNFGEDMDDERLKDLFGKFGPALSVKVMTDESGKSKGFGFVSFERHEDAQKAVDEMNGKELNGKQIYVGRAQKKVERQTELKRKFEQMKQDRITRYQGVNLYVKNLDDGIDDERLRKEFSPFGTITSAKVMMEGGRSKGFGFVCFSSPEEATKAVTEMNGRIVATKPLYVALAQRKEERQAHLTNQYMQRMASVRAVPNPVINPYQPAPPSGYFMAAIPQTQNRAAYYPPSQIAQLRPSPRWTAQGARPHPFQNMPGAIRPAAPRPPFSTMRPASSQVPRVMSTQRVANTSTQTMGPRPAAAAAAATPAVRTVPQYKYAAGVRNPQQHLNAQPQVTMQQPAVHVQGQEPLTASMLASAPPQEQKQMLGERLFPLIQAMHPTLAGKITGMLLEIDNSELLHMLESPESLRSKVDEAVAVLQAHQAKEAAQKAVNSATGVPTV
HIV Env fusion: inhibitors of HIV Env-mediated cell fusion; HeLa-JRFL Env/CEM21 cell fusion, luciferase; inhibition, % at 12.3 µM; AID 651610; 360,000 compounds, 1.1% hits;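 active = mean replicate inhibition score of at least 50 and every replicate individually at or above 50; inconclusive = only one of the two criteria met; inactive = mean below 50 and not all replicates reaching 50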;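 also: 0% = plate neutral controls and 100% = maraviroc near 300 nM; one replicate is shown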
MT1-MMP act inh: blocks activation of human MT1-MMP; HT1080 RFP-PRO-GFP cells, GFP/RFP ratio fluorescence, overnight; percent of plate control window, DMSO zero; GFP/RFP ratio change, % at 20 µM; 360,000 compounds, 0.061% hits;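 active = GFP/RFP ratio change of at least 30% with cell ATP level not reduced by more than half and red fluorescence within 50% of control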; also: strong numbers were not always called active
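Material: RFP-PRO-GFP reporter HT1080 cells. Dosing: single-point 20 µM compound, 1% DMSO. Controls: DMSO and RFP-L50D-GFP cell wells. Timing: cells overnight before dosing, compound overnight, 37 °C, 5% CO2. Measure: GFP/RFP fluorescence ratio.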
eIF4H inh retest: further read-out of eIF4H inh, marked with its call; inhibition, %; compound at 20 µM; confirmation average;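 mean of two retest wells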
PABP FP inh retest: further read-out of PABP FP inh, marked with its call; inhibition, %; compound at 20 µM; confirmation repeats;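 mean of two retest wells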
MT1-MMP act inh RFP: second read-out of MT1-MMP act inh, no call of its own (marks repeat the call); RFP signal change, %; measured here: RFP expression control read;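 0 = vehicle wells; hits needed this value within 50% of zero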
* marks the source's active call; other numbers are inactive results; i = inactive; ? = inconclusive; . = no result given. These rows are one share of the data. The share of hits here may be higher or lower than overall.

Start of the listing, in advance (three entries):
SMILES	CSC inhib	Rce1 inhib	UUG fidelity	eIF4H inh	PABP FP inh	HIV Env fusion	MT1-MMP act inh	MT1-MMP act inh RFP	others
COc1ccc(CCN2CC(C(=O)N(C)CC(=O)Nc3ccc(F)c(F)c3F)CC2=O)cc1OC (centres undefined)	.	.	2.8	.	.	11.0	-3.5	-1.0
CCOC(=O)Cc1csc(NC(=O)Cn2cnc3c2c(=O)n(C)c(=O)n3C)n1	13.9	i	.	0.0	-1.6	6.8	-0.6	3.7
Cc1ccc(CC2SC(N)=NC2=O)cc1 (centres undefined)	0.0	i	.	4.5	3.9	-6.5	-1.6	-0.2

The listing (from the top)
SMILES	CSC inhib	Rce1 inhib	UUG fidelity	eIF4H inh	PABP FP inh	HIV Env fusion	MT1-MMP act inh	MT1-MMP act inh RFP	others
COc1ccc(CCN2CC(C(=O)N(C)CC(=O)Nc3ccc(F)c(F)c3F)CC2=O)cc1OC (centres undefined)	.	.	2.8	.	.	11.0	-3.5	-1.0
CCOC(=O)Cc1csc(NC(=O)Cn2cnc3c2c(=O)n(C)c(=O)n3C)n1	13.9	i	.	0.0	-1.6	6.8	-0.6	3.7
Cc1ccc(CC2SC(N)=NC2=O)cc1 (centres undefined)	0.0	i	.	4.5	3.9	-6.5	-1.6	-0.2
N#Cc1c(/N=C/N2CCOCC2)sc2c1CCCCC2	-14.0	i	-36.6	-7.1	13.5	-190.0	-2.8	-1.4
O=C1C(c2ccccc2)c2ccccc2N1Cc1ccccc1 (centres undefined)	.	.	-10.4	.	.	17.0	-5.4	2.7
O=C(COC(=O)Cn1[nH]c(=O)c2ccccc2c1=O)NNC(=O)c1ccccc1	-8.6	.	-2.1	.	.	.	0.0	1.8
O=C(Nc1nc2c(s1)CN(Cc1ccccc1)CC2)C1CCCC1	-6.2	i	.	3.1	-16.7	-8.4	-4.2	-0.5
O=C(NCc1cccnc1)c1cc(C2CCCCN2C(=O)c2ccc3c(c2)CCO3)on1 (centres undefined)	.	.	-14.1	.	.	-6.1	6.0	5.7
COc1cccc(OCCN2CCN(c3ncnc4c3cnn4-c3ccccc3)CC2)c1	39.7	i	1.6	4.1	-0.2	26.5	2.7	-12.4
Cc1noc(C)c1COc1ccc(C(=O)OCC(=O)Nc2ccc3c(c2)OCO3)cc1	-0.6	i	6.0	-10.2	1.6	.	0.8	3.6
CCN(CC)S(=O)(=O)c1ccc(Cl)c(C(=O)Nc2cc(C)nn2-c2ccccc2)c1	-0.2	i	.	-0.2	-10.1	5.6	-2.2	-2.8
COc1ccc(OC)c(C2=Nn3c(nnc3-c3cc(OC)c(OC)c(OC)c3)SC2)c1	-7.7	i	-9.6	-9.8	3.5	3.0	7.6	1.6
Cc1cccc([C@@H]2[C@@H]3C(=O)N(Cc4ccccc4)C(=O)[C@@H]3[C@]3(Cc4ccc(Cl)cc4)C(=O)N(c4cccc(Br)c4)C(=O)N23)c1	-6.6	i	-8.5	-3.3	0.4	-232.9	5.7	-5.9
COc1cc(S(=O)(=O)Nc2ccccc2C(=O)N2CCCCC2)ccc1NC(C)=O	.	.	22.5	.	.	-3.5	-2.7	0.7
CCC1(C)Nc2ccccc2C(=O)N1O (centres undefined)	-12.3	i	-2.4	-1.5	9.9	.	3.2	5.7
CC(=O)c1ccc(N(C(=O)CNC(=O)c2ccco2)C(C(=O)NC2CCCC2)c2ccc(C)o2)cc1 (centres undefined)	.	i	0.5	-1.3	-5.6	4.1	0.9	2.0
CN(Cc1ccccc1)C(=O)c1cccc(NC(=O)Cc2ccc(NC(=O)C3CCN(C(=O)C4CC4)CC3)cc2)c1	.	.	-13.8	.	.	-2.8	1.1	1.8
Cc1cccc(NC(=O)c2ccc(C(=O)c3ccccc3)o2)c1	-10.9	i	.	2.2	-14.1	-1.8	4.8	1.8
CCC[C@@H](CN[C@@H](CNC)C(C)C)NCCCCc1ccccc1	23.1	i	2.8	8.8	4.1	-2.3	4.1	4.3
O=C(COC(=O)/C=C/c1ccc(Cl)cc1Cl)NCCC1=CCCCC1	-15.1	i	.	-0.6	13.2	1.0	2.4	9.2
CCCCn1c(N)c(N(CCC(C)C)C(=O)c2cc(-c3ccco3)nc3ccccc23)c(=O)[nH]c1=O	-13.8	i	1.6	59.6*	19.5*	-187.3	-3.2	-0.1	eIF4H inh retest=88.4*;PABP FP inh retest=75.5*
Cc1ccccc1-n1ncc2c1CC(C)(C)CC2NC(=O)C1=CC(=O)CC(C)(C)O1 (centres undefined)	5.6	i	-16.1	2.9	-3.5	-9.7	-2.9	1.0
COc1cc(NC(=O)Nc2nnc([C@H]3C[C@H](O)[C@@H](CO)O3)s2)cc(OC)c1	.	.	-18.6	.	.	29.0	-2.6	-2.8
CCOc1ccc(N(C)C(=O)CCc2nnc3ccc(N4CCOCC4)nn23)cc1	5.6	i	-23.4	-3.5	11.0	1.0	-1.9	1.1
CN(C(=O)c1cccc(NC(=O)Cc2ccc([N+](=O)[O-])cc2)c1)C1CC1	2.9	.	-15.2	.	.	-9.7	7.6	-9.0
O=C(CN(Cc1ccc(F)cc1)C(=O)CNS(=O)(=O)c1ccc(F)cc1)NCC1CCCO1 (centres undefined)	10.2	i	1.4	4.3	5.9	0.7	0.8	0.4
O=[N+]([O-])c1cccc(S(=O)(=O)NCCc2ccccc2)c1	-8.4	i	-14.8	-1.6	-0.4	-8.4	2.4	0.1
CCCCN(CCCC)Cc1cc2ccccc2c2c1COC2	-4.8	i	-54.0	-1.2	19.5	.	-3.9	1.1
COC(=O)c1cccc(CSc2nnc(-c3ccco3)n2-c2ccccc2)c1	-6.6	i	0.4	-1.2	-8.6	.	10.1	8.4
CCOC(=O)N1CCC(NS(=O)(=O)c2ccc3c(c2)oc(=O)n3C)CC1	-6.0	i	-11.1	66.8*	56.0*	13.3	-23.9	1.9
CC(=O)Nc1ccc2[nH]c(C)cc(=O)c2c1	-7.3	i	-14.8	1.2	-1.6	.	1.8	1.1
CC(=O)OCC(CCn1cnc2cnc(N)nc21)COC(C)=O	-5.7	i	.	-1.6	-3.6	.	.	.
COc1ccc(CCN(Cc2cc3cc(C)cc(C)c3nc2Cl)C(=O)C2CC2)cc1	30.1	i	-9.2	-13.2	-1.0	.	8.4	-10.2
COc1ccc(C(C)(NC(C)=O)c2nc(-c3ccc(F)cc3OC)cs2)cc1 (centres undefined)	.	.	-11.4	.	.	-7.8	-4.3	4.3
CCc1sc(N(C(=O)Cc2ccccc2)c2cccc(F)c2)nc1-c1ccc(C)cc1	-2.5	i	2.6	-4.5	-0.3	.	-1.0	5.2
Cn1nc(C(=O)NCCCN2CCCCC2)c2c1-c1ccccc1SC2	-0.3	i	-3.1	-0.6	-7.0	-2.2	7.1	2.7
O=C(C1CCC(CNc2nc(=S)[nH]c3ccccc23)CC1)N1CCN(c2ccc(F)cc2)CC1 (centres undefined)	.	i	.	0.1	-3.4	19.2	-5.2	-11.0
CC1CCN(Cc2c(O)ccc3c(=O)c(-c4nc5ccccc5s4)c(N)oc23)CC1	.	i	.	-2.6	-1.9	11.2	5.8	1.9
O=C(Nc1ccccc1)C1(c2ccccc2)CC1(Cl)Cl (centres undefined)	-9.7	i	0.0	4.2	-1.1	10.9	-1.5	-1.0
CCOCCCNCc1cc(Br)ccc1OCC	.	i	-8.7	-2.4	-1.6	-8.7	0.7	1.9
COC(=O)[C@]1(C)N[C@H](c2ccc(SC3CCCCC3)c(OC)c2)[C@@H]2C(=O)N(C)C(=O)[C@@H]21	-5.2	i	3.5	.	.	-4.5	2.5	-0.8
O=C(CSc1nc2c([nH]c3ccccc32)c(=O)n1-c1ccccc1)N1CCOCC1	-6.1	i	-19.2	6.2	-6.9	-14.7	2.3	2.7
Cc1ccc(C)c(N2CCN(C(=O)Cn3ncn4cccc4c3=O)CC2)c1	0.8	i	-2.0	2.4	-2.1	18.0	3.0	-11.7
Cc1cccc(C)c1NC(=O)C(c1ccccc1)N1CCC(Cc2ccccc2)CC1 (centres undefined)	.	.	7.7	.	.	-24.7	-0.1	-7.0
CSc1cccc(NC(=O)c2nnn(Cc3ccccc3)c2N)c1	39.5	i	-6.7	-12.5	6.8	-74.9	5.0	-2.0
CC[C@H](C)[C@@H](NC(=O)O[C@@H]1C(=O)c2cc(Br)ccc2O[C@H]1c1cccc(OC)c1)C(=O)OC	35.8	.	.	-15.7	2.0	.	.	.
COC(=O)c1sc(NC(=S)NC(=O)c2ccccc2)nc1C	19.6	i	.	2.4	-9.8	-3.2	-1.4	2.9
CCC(C)NC(=O)c1ccc(-n2c(=S)[nH]c3ccccc3c2=O)cc1 (centres undefined)	.	i	-12.3	-16.1	-1.8	9.3	3.7	3.9
CCOCCCN(C(=O)Cn1nnc(-c2ccc(C)o2)n1)C(C(=O)NC1CCCC1)c1ccc(C)o1 (centres undefined)	.	i	-12.3	-5.1	4.1	17.5	-4.9	-2.5
N#Cc1ccccc1NC(=O)C(=O)NCC1CCCN1S(=O)(=O)c1cccs1 (centres undefined)	.	i	.	.	.	-13.3	0.1	1.6
O=C(CNc1cc(S(=O)(=O)N2CCCC2)ccc1OCC(F)(F)F)Nc1cc(Cl)cc(Cl)c1	22.6	i	.	-2.3	-2.3	.	.	.
COc1cc2nc(/C=C/c3ccc(N(C)C)cc3)sc2cc1SC	66.8	.	-9.9	?	-1.8	-10.9	-180.9	-3.8
O=C1c2cccc3cccc(c23)C(=O)N1CC1CCN(S(=O)(=O)c2ccccc2)CC1	.	.	-9.2	.	.	0.1	-0.2	-2.2
CCOC(=O)c1sc(-c2ccccc2)cc1NC(=O)CSc1nnnn1C	-0.9	i	-20.0	-7.5	-5.3	.	-6.1	-8.8
CCN(C(=O)c1cc2c(s1)-c1ccccc1S(=O)(=O)C2)c1cc(OC)ccc1OC	-2.2	i	2.9	-20.5	-21.2	-92.2	0.9	-8.6
CC(C)NS(=O)(=O)c1ccc(OCC(=O)Nc2cccc3ccccc23)cc1	5.5	i	-7.7	-2.5	9.6	-9.7	-0.2	-2.0
O=C(Cn1cnc2c(nnn2-c2ccccc2)c1=O)NCc1ccco1	-6.7	i	6.2	1.4	-11.1	15.1	-4.8	4.3
COCCn1c(CN(Cc2ccccc2)Cc2ccccc2)nc2c1c(=O)n(C)c(=O)n2C	-4.3	i	5.9	-4.9	2.6	.	-10.8	-5.5
CSCC[C@H](NC(=O)N1CCn2c1nc1ccccc12)C(=O)NC1CC1	1.5	i	-9.7	8.2	8.5	-8.7	-2.0	2.5
CCCCCc1nc2c(c3c1CCCC3)CCCC2	2.5	i	.	-6.6	9.0	21.2	.	.

Other structures:
SMILES	CSC inhib	Rce1 inhib	UUG fidelity	eIF4H inh	PABP FP inh	HIV Env fusion	MT1-MMP act inh	MT1-MMP act inh RFP	others
Cc1ccccc1NC(=O)/C(C#N)=C\c1ccsc1	1.9	i	.	-8.2	-3.3	0.4	0.4	3.0
CCN(CCO)C(=O)CC(c1ccccc1)c1cc(Br)ccc1O (centres undefined)	-8.7	i	-7.4	-1.8	-6.0	.	-1.8	1.8
O=P(CO)(Cc1ccccc1)Cc1ccccc1	-1.2	i	-3.9	2.1	-7.8	.	3.2	3.9
COc1ccc(CN2CCN(C(=O)C3CCN(C(=O)Nc4ccccc4)CC3)CC2)cc1OC	12.4	.	2.8	.	.	.	4.1	0.6

High-throughput results (PubChem BioAssay)
